# UUG fidelity: modulators of yeast start codon fidelity, primary screen, whole organism, S. cerevisiae, single point, plate reader | S. cerevisiae UUG-firefly luciferase reporter, luminescence/redox ratio | activity score, % at 18.7 µM | 350,000 compounds, 0.13% hits;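 active means replicate mean at a twofold rise or more, about +100% in these data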;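 further: firefly luciferase made from a UUG start codon reports start codon fidelity; reporter light over untreated wells divided by growth signal over untreated wells; some hits fall short of that in this replicate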
# eIF4H FP inh: human eIF4H binding inhibitors, primary screen, translation initiation inhibitor project, biochemical, uHTS, fluorescence polarization; inhibition, % at 35 µM; Eukaryotic translation initiation factor 4H (Homo sapiens), Q15056; 290,000 compounds, 0.94% hits; AID 2012, 2009; eIF4H fluorescence polarization binding assay;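 active means 50% or more with normal probe brightness, or confirmed in later tests; inconclusive means above 50% with abnormal brightness, or retests that disagree; inactive means below 50% or failed in later tests; about a fifth of its hits are not listed in these tables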;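 further: calls also rest on retests at 20 µM and on dose response follow-up; 0% = protein and probe with vehicle and 100% = probe without protein; strong numbers were not always called active; many hits fall short of the cut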
# PABP polyA inh: PABP poly(A) RNA binding inhibitors, primary screen, biochemical, fluorescence polarization, uHTS. inhibition, % at 35 µM. 290,000 compounds, 1% hits. AID 2014, 2009;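 active means 50% or more with normal probe brightness, or confirmed in later tests; inconclusive means above 50% with abnormal brightness, or retests that disagree; inactive means below 50% or failed in later tests; about a fifth of its hits are not listed in these tables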;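 further: calls also rest on retests at 20 µM and on dose response follow-up; controls were probe without protein and protein plus probe with vehicle; some compounds called inactive have numbers as strong as hits; many hits fall short of the cut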
# Rce1 inhib: yeast Rce1p protease inhibitors, primary screen, biochemical, fluorescence, cell-free homogeneous; yeast membranes, quenched prenylated peptide cleavage fluorescence; calls only; 290,000 compounds, 0.27% hits;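 active means fall in fluorescence gain of 50% or more versus controls, with final raw signal at or below 3038400; inconclusive means same 50% fall but final raw signal above 3038400; inactive means fall in fluorescence gain under 50%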;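 further: plate controls were neutral control wells for no effect and wells lacking membranes for full effect; tested at 10 µM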
# Target sequence (Q03530 whole entry, looked up): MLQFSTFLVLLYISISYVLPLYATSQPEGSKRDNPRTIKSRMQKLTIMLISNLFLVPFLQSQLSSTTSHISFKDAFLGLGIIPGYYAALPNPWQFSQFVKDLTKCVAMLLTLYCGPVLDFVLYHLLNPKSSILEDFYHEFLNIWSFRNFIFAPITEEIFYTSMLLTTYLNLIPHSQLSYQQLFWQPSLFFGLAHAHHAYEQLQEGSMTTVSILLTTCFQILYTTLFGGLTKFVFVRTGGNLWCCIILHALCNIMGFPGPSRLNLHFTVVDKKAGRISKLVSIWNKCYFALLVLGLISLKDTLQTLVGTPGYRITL
# CSC inhib: cancer stem cell viability inhibitors, primary screen, luminescence; inhibition, % at 7.5 µM; 300,000 compounds, 1.1% hits; cancer stem cell-like cells viability; AID 2717, 2010;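 active means mean at 75% or more and at least half the replicates too; inconclusive means mean and replicates disagree; tested in HMLE shEcad cells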;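 further: 0% = median of negative and 100% = median of positive control wells; the first replicate is given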
# MT1-MMP act inh: blockers of MT1-MMP proenzyme processing, primary screen, HT1080 RFP-PRO-GFP cells, GFP/RFP fluorescence. GFP/RFP ratio change, % at 20 µM. Matrix metalloproteinase-14 (Homo sapiens), P50281. AID 651647, 2012. 360,000 compounds, 0.061% hits. GFP/RFP ratio fluorescence, overnight; percent of plate control window, DMSO zero;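 active means GFP/RFP ratio change of at least 30% with cell ATP level not reduced by more than half and red fluorescence within 50% of control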; further: strong numbers were not always called active
#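 system = RFP-PRO-GFP reporter HT1080 cells | dosing = 20 µM single dose, 1% DMSO | timing = overnight cell settling, then overnight compound exposure, 37 °C, 5% CO2 | read-out basis = GFP/RFP fluorescence ratio | controls = DMSO and RFP-L50D-GFP cell wells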
# HIV Env fusion: inhibitors of HIV-1 Env-driven cell-cell fusion, primary screen, HeLa-JRFL effector, CEM21 target cells, luciferase; inhibition, % at 12.3 µM; 360,000 compounds, 1.1% hits;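 active means mean replicate inhibition score of at least 50 and every replicate individually at or above 50; inconclusive means only one of the two criteria met; inactive means mean below 50 and not all replicates reaching 50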;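 further: 0% = plate neutral controls and 100% = maraviroc near 300 nM; one replicate is shown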
# eIF4H FP inh retest: recorded beside eIF4H FP inh, whose call it bears; inhibition, %; compound at 20 µM; confirmation average;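 mean of two retest wells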
# PABP polyA inh retest: recorded beside PABP polyA inh, whose call it bears; inhibition, %; compound at 20 µM; confirmation repeats;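 mean of two retest wells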
# MT1-MMP act inh RFP: also measured in MT1-MMP act inh; calls as there; RFP signal change, %; measured here: RFP expression control read;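 0 = vehicle wells; hits needed this value within 50% of zero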
# * hit, by the source's call; i = inactive; ? = inconclusive; . = not tested or not shown.
SMILES,UUG fidelity,eIF4H FP inh,PABP polyA inh,Rce1 inhib,CSC inhib,MT1-MMP act inh,MT1-MMP act inh RFP,HIV Env fusion,others
CC(C)(C)NC(=O)NC(=O)COC(=O)c1ccc(OC(F)F)cc1,9.3,3.2,2.5,i,-16.2,8.4,7.0,.,
COc1ccc(-n2nc(C(=O)NCC(=O)N3CCN(c4cccc(Cl)c4)CC3)c3ccccc3c2=O)c(OC)c1,6.0,-1.0,1.4,i,24.6,1.2,-4.4,6.8,
CC1CCN(C(=O)COC(=O)c2ccc(Br)o2)CC1,-7.9,18.7,1.2,i,10.0,2.0,5.7,.,
COc1ccccc1CN1C(=O)c2cccc3cccc(c23)C1=O,-6.1,2.9,-3.3,i,9.4,0.3,-0.9,.,
O=C(CNS(=O)(=O)c1ccc(C(=O)N2CCOCC2)cc1)N1CCOCC1,-23.5,-2.4,-1.8,i,-8.7,1.6,-0.3,.,
Cc1ccc(NC(=O)CSCC(=O)Nc2ccccc2N2CCCCC2)cc1,-2.8,.,.,i,18.1,-0.7,-3.0,?,
Cc1nn(CCCC(=O)Nc2cccnc2Cl)c(C)c1[N+](=O)[O-],-10.6,-2.6,-5.0,i,-4.1,3.7,1.6,-3.5,
COc1ccc(Nc2nc3ccccc3nc2NS(=O)(=O)c2cccs2)c(OC)c1,.,?,?,i,28.4,-4.9,-8.2,16.0,
CCn1c(SCC(=O)Nc2ccc(C)cc2)nc(O)cc1=O,-17.4,-6.6,3.9,i,-17.9,2.8,0.9,15.7,
O=C(CNC(=O)c1ccc(Cl)cc1Cl)OCCCn1c(=O)[nH]c2ccccc21,-31.1,.,.,i,-4.3,3.0,0.3,4.9,
C/C(CC(=O)Nc1cccc(C(F)(F)F)c1)=N/NC(=O)C(=O)NCCO,-19.3,-6.3,-3.7,i,-12.0,-0.5,1.4,-1.5,
CC(C)Sc1nc(N2CCOCC2)c2c(c1C#N)CC(C)(C)N(C)C2,-2.4,127.2,119.8,i,-5.0,-1.3,6.3,.,eIF4H FP inh retest=-0.4;PABP polyA inh retest=0.8
O=C(CCc1nc(-c2ccccc2)c(-c2ccccc2)o1)OCc1ccc(Cl)cc1,-9.1,-7.4,0.4,i,-8.1,1.7,1.3,5.5,
Cc1cccc(-n2ncc3c2CCCC3NC(=O)CN2CCCC2=O)c1C (configuration not stated),-5.2,-8.1,8.2,i,4.7,3.4,-3.9,1.0,
CC(C)(C)c1ccc(/C=N/N2CCN(c3ccccn3)CC2)cc1,9.8,4.8,12.8,i,38.0,1.0,-13.8,29.4,
Cc1ccc(S(=O)(=O)N(CC(=O)N=Nc2c(O)[nH]c3ccccc23)c2cccc(C)c2)cc1,-36.3,48.8,31.9,i,?,-15.1,-19.3,-13.6,
C=CCOC(=O)C1=C(C)OC(N)=C(C#N)C1c1ccc(F)cc1 (configuration not stated),-6.4,-8.6,0.9,i,-4.5,1.2,0.8,.,
CS(=O)(=O)c1ccccc1C(=O)Nc1ccc2sccc2c1,-10.8,-5.5,-2.9,i,-12.2,-1.7,-1.6,-4.8,
COc1ccc(CNS(=O)(=O)c2cc(OCC(N)=O)c(C)cc2Cl)cc1,-9.3,-0.6,-0.2,i,-2.9,-0.8,-5.7,-71.3,
COc1ccc(CC(=O)c2c(O)cc(O)cc2O)cc1OC,9.0,-12.0,3.8,i,-6.4,-1.0,-3.8,-24.3,
O=C1CCCN1CCCNC(=S)Nc1ccc(Nc2ccccc2)cc1,-16.2,-4.3,-10.6,i,-0.7,2.9,-2.5,6.4,
CCCN1C2CCCC1CC(NC(=S)Nc1cccc(C)c1)C2 (configuration not stated),-10.1,-9.4,4.3,i,-2.0,3.3,2.8,-6.3,
Cc1ccc(NC(=O)c2ccccc2[N+](=O)[O-])nc1,-27.2,-5.8,-0.5,i,6.9,-0.7,-1.0,-2.5,
O=[N+]([O-])c1ccccc1S(=O)(=O)N1CCN(c2ccccn2)CC1,-27.2,-12.9,0.8,i,-12.8,3.4,1.8,-2.6,
CN(Cc1ccccc1)c1oc(-c2ccco2)nc1C#N,-20.2,-2.4,-17.8,i,-14.6,-0.5,-3.0,.,
CC1(C)N(O)CC(c2cccs2)=[N+]1[O-],-9.3,-4.3,1.0,i,-6.6,9.9,-2.9,-14.5,
c1ccc(-n2ncc3c(NCc4ccco4)ncnc32)cc1,-20.1,-1.5,7.4,i,38.0,-1.3,-2.6,i,
Cc1ccc(-c2cc(C)nc3ncnn23)cc1,-14.4,5.2,-0.8,i,-3.2,-2.1,0.6,-18.6,
COc1ccccc1-n1c(C)nc(=O)c(-c2ccccc2)c1C,-11.3,5.3,-7.6,i,-8.6,-0.4,3.0,-19.1,
Cn1c(N)c(C(=O)CSc2nn(-c3ccccc3)c(=S)s2)c(=O)n(C)c1=O,-12.9,.,.,.,.,-11.7,-29.7,-16.1,

# Two neighbouring compounds from above, for reference:
SMILES,UUG fidelity,eIF4H FP inh,PABP polyA inh,Rce1 inhib,CSC inhib,MT1-MMP act inh,MT1-MMP act inh RFP,HIV Env fusion,others
COc1ccccc1-n1c(C)nc(=O)c(-c2ccccc2)c1C,-11.3,5.3,-7.6,i,-8.6,-0.4,3.0,-19.1,
Cn1c(N)c(C(=O)CSc2nn(-c3ccccc3)c(=S)s2)c(=O)n(C)c1=O,-12.9,.,.,.,.,-11.7,-29.7,-16.1,

# The listing continues.
SMILES,UUG fidelity,eIF4H FP inh,PABP polyA inh,Rce1 inhib,CSC inhib,MT1-MMP act inh,MT1-MMP act inh RFP,HIV Env fusion,others
O=C(CN1CCCN(Cc2ccc(F)cc2)S1(=O)=O)NC1CCCC1,-2.1,-9.5,-3.1,i,-21.8,0.3,-3.0,-11.6,
C=CCn1c(-c2sc3nc(C)cc(C)c3c2N)n[nH]c1=S,-16.7,-7.8,0.7,i,5.1,5.6,-7.7,-3.7,
Cc1cccc(N2CN(Cc3cccnc3)CNC2=S)c1C,-11.2,-4.0,-6.7,i,-9.4,3.8,5.4,-1.1,
OCC1(CC2CCCCO2)CCN(C/C=C/c2ccccc2)CC1 (configuration not stated),-10.2,-0.2,-1.0,i,-18.8,3.0,6.0,1.4,
O=C(NC1CCN(CC(=O)N(c2ccccc2)c2ccccc2)CC1)c1ccc([N+](=O)[O-])cc1,-1.6,0.2,12.8,i,16.0,-3.6,-6.2,14.5,
Cc1cccc(OCC(=O)Nc2ccc(C(=O)NCC(C)C)cc2)c1,1.3,-6.5,-4.7,i,6.1,-2.7,-7.2,7.7,
O=C(O)c1ccc(-n2c(-c3cc(-c4ccco4)[nH]n3)n[nH]c2=S)cc1,-16.2,86.9*,61.1*,i,15.9,-1.1,-0.1,.,eIF4H FP inh retest=87.0*;PABP polyA inh retest=103.1*
COc1ccc(S(=O)(=O)N2CCCCCC2)cc1C(=O)N1CCN(c2ccccc2O)CC1,7.2,.,.,.,-7.3,-1.7,-1.7,.,
CC(C)c1ccccc1NC(=S)NN(Cc1ccccc1)c1ccccc1,-8.9,0.2,-6.2,i,5.8,-6.1,-11.9,13.9,
CC(C)C(=O)Nc1nc(-c2ccc([N+](=O)[O-])cc2)cs1,.,-3.3,4.6,i,-4.2,0.8,-17.4,-73.6,
CC1CC(C)CN(CCCNC(=O)c2ccc3nc(N4CCCCC4)sc3c2)C1 (configuration not stated),-5.6,12.2,-3.1,i,1.2,-0.6,2.2,-29.0,
COc1ccc(Br)c(C(=O)N(C)CC(=O)Nc2ccc(N3CCOCC3)cc2)c1,.,.,.,i,-1.4,-1.5,4.0,.,
CCN(CC)CCCNC(=O)C1CCN(c2ncnc3c2sc2cccc(F)c23)CC1,5.3,-1.4,13.2,i,5.0,-3.0,-0.6,-21.2,
O=C(COc1ccccc1Br)Nc1ccccc1C(F)(F)F,.,-5.2,-5.4,i,-7.9,6.2,-4.3,-28.1,
COc1ccccc1N1CCN(C(=O)C(C)N(c2ccc(C)cc2)S(C)(=O)=O)CC1 (configuration not stated),-6.0,-9.6,-4.6,i,-5.9,-0.9,-4.5,.,
Cc1nc2c(c(=O)n1CCC(C)C)c1nc3ccccc3nc1n2Cc1ccc2c(c1)OCO2,.,-11.1,-1.6,i,-1.1,.,.,.,
COc1ccc(/C=C(/NC(=O)c2ccc([N+](=O)[O-])cc2)C(=O)NCCCN(C)C)cc1,.,-4.4,4.7,i,-0.1,0.3,4.7,18.9,
COc1ccc(CCNC(=O)CSc2nn3c(=O)c(C)nnc3s2)cc1OC,-13.2,-3.3,-2.0,i,-5.1,3.6,4.6,-2.8,
c1cncc(Cc2cc3ccccc3[nH]2)c1,-9.2,-3.8,2.5,i,15.8,-0.8,1.7,-30.4,
CC1(C(=O)NCc2ccccc2)CCC(=O)N1CCc1c[nH]c2ccccc12 (configuration not stated),-9.9,.,.,.,.,-1.8,-3.2,13.1,
Cn1nnnc1Sc1ncnc2scc(Br)c12,-5.8,.,.,.,?,2.3,-12.3,-8.2,
COc1cccc(C=NNc2nc3ccccc3s2)c1OC,-17.4,.,.,.,.,4.2,-0.1,-212.3,
C/C=C/Cn1c(SCCCc2ccccc2)nc2c1c(=O)[nH]c(=O)n2C,-5.2,-12.5,-11.4,i,3.6,2.6,-10.2,-21.9,
O=C(CCSc1ccccc1)NCc1cccnc1,.,6.1,-5.2,i,-10.7,-0.4,-0.7,18.7,
CCOc1c(Br)cc(/C=C2/SC(=O)N(CC(=O)N3CCCC3)C2=O)cc1OC,-9.0,-17.4,-3.8,i,-1.4,0.9,5.2,-10.8,
COc1ccc(NC(=O)N2CCN(c3nc(-c4cccc(OC)c4)cs3)CC2)cc1,5.7,1.7,-7.2,i,-12.3,-5.7,-23.1,63.3*,
CC(NC(=O)Nc1ccc(Cl)cc1)C(c1cccs1)N1CCOCC1 (configuration not stated),-15.5,-5.5,4.8,i,3.7,-3.1,-3.1,-17.6,
COC(=O)c1cccc(NC(=O)CCN2C(=O)C3CC=CCC3C2=O)c1 (configuration not stated),-1.4,.,.,.,-8.8,5.2,2.6,-205.0,
O=C(CNC(=O)c1ccccc1)OCc1cc(=O)n2cc(Br)ccc2n1,.,-0.8,-0.1,.,1.1,0.8,4.4,-0.5,
Cn1c(N)c(C(=O)CSc2nnc(-c3ccccc3F)n2C2CC2)c(=O)n(C)c1=O,.,4.9,8.5,i,12.2,-0.3,-6.6,16.2,
COc1ccc(C(=O)O)cc1NS(=O)(=O)c1cccc2nsnc12,-11.9,6.7,27.7,i,-2.9,-4.7,0.5,.,
Cc1ccc(Cl)c2c(N=Nc3ccccc3)c(O)[nH]c12,-10.3,?,?,i,5.6,-169.1,-3.4,-115.3,
COP(=O)(OC)C(Nc1ccc([N+](=O)[O-])cc1)c1ccccc1 (configuration not stated),.,-7.1,2.9,i,-12.8,3.7,2.2,1.2,
CC(=O)c1cnc2ncnn2c1C,3.2,5.6,-4.4,i,0.6,-0.9,3.4,-23.1,
Cc1ccc(NC(=O)CSc2nnc(CNC(=O)C34CC5CC(CC(C5)C3)C4)n2-c2ccc(F)cc2)cc1,-5.3,4.4,-19.8,i,0.8,-2.9,-2.1,25.7,
COc1cccc(C(O)c2nc(-c3cc(F)cc(F)c3)cs2)c1 (configuration not stated),-11.0,.,.,.,.,3.8,-2.0,24.6,

# Assay outcomes: PubChem BioAssay, several laboratories
